LANA-nucl inh = LANA-nucleosome interaction inhibition | FITC-LANA1-23 / chicken nucleosome fluorescence polarization; active compounds read low | z-score (test concentration not listed) | 51,000 compounds, 0.3% hits | AID 720717;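 active means both repeat wells score below -2 in polarization z-score versus plate sample wells, excluding overly bright wells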;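 further: 100 nL library stock added to about 30 µL; numbers are from one replicate; some results filed as inactive read as strong as hits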
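Assay system: purified chicken nucleosomes with FITC-labelled LANA N-terminal peptide (1-23) / Probe or stimulus: 50 nM FITC-LANA1-23 probe / Compound dosing: pin-transferred compound, 100 nL / Times: compound with peptide–nucleosome mix 10–45 min at room temperature / Technique: fluorescence polarization, 480 nm excitation, 535 nm parallel and perpendicular emission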
BasE inh = inhibitors of Acinetobacter baumannii siderophore enzyme BasE; purified BasE, fluorescence polarization binding displacement; inhibition, % (test concentration not listed); 84,000 compounds, 0.1% hits; AID 485350;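 active means both replicates above 25% with normal brightness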;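 further: 0% = negative plate control signal and 100% = positive plate control signal; stock transfer was 100 nL into about 30 µL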
* marks the source's active call; other numbers are inactive results; . = not tested or not shown; & = joins results of further samples. Only part of the results is shown; the hit share may differ from the screen's.

compound,LANA-nucl inh,BasE inh
Cc1cccc2sc(N(CCN(C)C)C(=O)C3COc4ccccc4O3)nc12 (stereo not given),-0.17,0.8
Cc1ccc(N(CN2CCCC2=O)C(=O)c2ccccc2)cc1,-1.1,1.9
O=S(=O)(Cc1ccccc1)N1CCN(c2ccccc2Cl)CC1,1,3.2
Cn1c(=O)oc2cc(S(=O)(=O)N3CCC(C(=O)NCCc4ccccc4)CC3)ccc21,-0.34,1.1
O=C(Nc1nccs1)c1cc2ccccc2oc1=O,-0.86,1.8
Cc1cccc(CN2CCc3c([nH]c4ccccc34)C2)c1,-0.28,3.5
O=C(CC(c1ccccc1)n1cccc1)N1CCc2ccccc21 (stereo not given),-1.3,0.5
CS(=O)(=O)Nc1ccccc1C(=O)OCC(=O)NC1CC1,.,1.0
Cc1cccc(C)c1OC(=O)CN1C(=O)c2ccccc2C1=O,.,-0.3
O=C1CC2(CCCC2)C(=O)N1CCc1cccs1,.,3.3
Cc1cc(C)cc(NC(=O)N2CCC(NC(=O)C3CCCCC3)CC2)c1,-1.2,1.0
Cc1nc2ccc(NC(=O)c3cccc(S(C)(=O)=O)c3)cc2s1,-0.3,-2.7

Compounds shown so far with a carbonyl joined to an NH by a bond outside any ring:
compound,LANA-nucl inh,BasE inh
Cn1c(=O)oc2cc(S(=O)(=O)N3CCC(C(=O)NCCc4ccccc4)CC3)ccc21,-0.34,1.1
O=C(Nc1nccs1)c1cc2ccccc2oc1=O,-0.86,1.8
CS(=O)(=O)Nc1ccccc1C(=O)OCC(=O)NC1CC1,.,1.0
Cc1cc(C)cc(NC(=O)N2CCC(NC(=O)C3CCCCC3)CC2)c1,-1.2,1.0
Cc1nc2ccc(NC(=O)c3cccc(S(C)(=O)=O)c3)cc2s1,-0.3,-2.7

Next section:
compound,LANA-nucl inh,BasE inh
Cn1c(=O)[nH]c(=O)c2c1nc1n2CCN1Cc1ccco1,0.091,-0.8
O=C(/C=C/c1ccco1)Nc1ccc2ccccc2c1,1.7,-6.7
O=c1c2ccccc2nc2n1CCN2Cc1ccccc1,.,1.8
COC(=O)c1sc(N)c(C(=O)OC)c1COC(=O)c1cc(S(N)(=O)=O)ccc1OC,.,0.7
CSc1ccccc1NC(=O)CN(C)C(=O)C1CCCCC1,.,2.6
CN1CCN(CCNC(=O)Cn2ncc3c4ccccc4n(Cc4ccc(F)cc4)c3c2=O)CC1,-0.59,-2.7
CC(Sc1nnc(-c2ccccc2)o1)C(=O)NCCC1=CCCCC1 (stereo not given),.,-0.3
Cc1sc2nc(C(C)Sc3nnc(-c4cccs4)n3-c3ccccc3)[nH]c(=O)c2c1C (stereo not given),.,-0.8
O=C1c2cccc3cccc(c23)C(=O)N1c1ccncc1,-1.4,0.1
O=C(OCCN1C(=O)c2ccccc2C1=O)c1cccc(S(=O)(=O)N2CCCCC2)c1,.,-0.7
COc1cc(/C=N/n2c(C)nc3c(ncn3-c3ccccc3)c2=O)cc(OC)c1OC,.,1.1
COc1ccc(C2CC(SCC(=O)Nc3ccccc3)=Nc3ncnn32)cc1 (stereo not given),0.51,-0.5
C[N+](C)(C)CCNC(=O)c1ccc(/C=N/O)nc1,0.2,3.5
CN(C)/C=C(/C(=O)c1ccccc1)c1nc2ccccc2[nH]1,.,2.0
CC(=O)SCCC(=O)N1C(C)CCCC1C(=O)O (stereo not given),-0.33,-0.3
CN(C(=O)COC(=O)c1cccc(F)c1)c1ccccc1,.,0.6
Cc1nn(-c2ccccc2)c(C)c1CCC(=O)OCc1ccc(C#N)cc1,.,1.5
O=C(Nc1ccccc1)c1ccncc1,-0.16,1.2
O=C(Nc1ccc2c(c1)OCO2)c1cccc2c1C(=O)N(Cc1cccnc1)C2,-0.063,0.3
O=C(NCC1CCCCC1)c1cccnc1,-0.012,2.7
O=C(NC1CC1)c1cc(-n2cnnc2)ccc1Cl,0.73,-1.4
CCOc1ccc(-c2cc(C(=O)N3CCOCC3)c3c(-c4ccc(C)cc4)[nH]nc3n2)cc1,2,-3.3
CC(=O)Nc1ccc(NC(=O)c2ccnn2C)cc1,.,0.9
COC(=O)C1=C(NC(=O)c2ccccc2F)CCS1,-0.34,1.1
C=CCN1C(=O)c2ccc(C(=O)Nc3ccc(F)cc3)cc2C1=O,.,2.3
CN(C(=O)COC(=O)c1ccc(CN2CCCC2=O)cc1)c1ccccc1,.,2.9
CC(=O)NC1C(=O)N=C(SCC(=O)Nc2cccc(Cl)c2)NC1=O (stereo not given),-1.2,0.6
COc1ccc(C(NC(=O)/C=C\c2ccco2)c2cc(OC)c(OC)cc2Br)cc1OC (stereo not given),0.42,2.6
Cc1cccc(N(C)C(=S)Oc2ccc3ccccc3c2)c1,1.1&0.78&-0.1,-3.4&-0.8
Cc1ccc(C(=O)N/C(=C/c2ccco2)C(=O)Nc2ccc(C(=O)O)cc2)cc1,0.9,2.1
CC1NC(=S)N(C2CC2)C1=O (stereo not given),.,0.6
COC(=O)c1ccc(COC(=O)C2Cc3ccccc3CN2C(=O)c2ccco2)cc1 (stereo not given),.,-1.6
CCN(CC(N)=O)S(=O)(=O)c1ccc(Br)cc1,1.2,-1.9
CC(C)(C)OC(=O)CSc1nc2ccccc2o1,.,1.4
CCCC/C(O)=C/c1nc2ccccc2[nH]c1=O,.,0.1
CCN(CC)S(=O)(=O)c1cc(Br)ccc1OC,-0.89,0.9
CCCCCCCCCCCCCCCC(=O)OC/C=C(C)/C=C/C=C(C)/C=C/C1=C(C)CCCC1(C)C,0.26&0.15,-0.9
O=C(Nc1cccc(C(=O)NC2CCCC2)c1)C1=CSCCO1,0.048,0.7
COC(=O)CCCc1cccs1,.,3.6
COC(=O)CCNc1ccc(OC)cc1,-1.2,1.2
O=C(Nc1ccccc1)OCc1cc(-c2ccc(Cl)cc2)oc1C(F)(F)F,.,1.2
CCCN=CC1=C(O)CC(c2ccccc2)CC1=O (stereo not given),0.48,-1.4
CCOC(=O)Cn1nnnc1C(C(C)C)N(Cc1ccc(F)cc1)Cc1cc2cc3c(cc2[nH]c1=O)OCO3 (stereo not given),-0.45,2.0
O=S(=O)(NC1=NCCC1)c1cccs1,.,1.4
Cc1nn(CC(=O)NC2CCCc3ccccc32)c(=O)c2cc3occc3n12 (stereo not given),-1.4,-0.5
Clc1cccc(OCc2nc3ccccc3o2)c1Cl,.,-0.6
CC(OC(=O)c1ccccc1NS(C)(=O)=O)C(=O)NC1(C#N)CCCCC1 (stereo not given),.,-0.8
O=C(O)COc1ccccc1/C=N\n1cnnc1,-0.5,9.9
CC(C)Cn1cc(NC(=O)N(C)C2CCCCC2)c2ccccc2c1=O,.,1.9
CCC(C)NC(=O)Cn1ncc2c1-c1ccccc1OC2 (stereo not given),-1.7,-1.5
CSC1=NCCN1C(=O)c1ccc(Br)cc1,-0.001,1.9
CCCCc1ccc(NC(=O)c2c(Cl)nc3sccn23)cc1,.,2.4
CCOC(=O)c1[nH]c(CN(C)Cc2nc3ccccc3c(=O)[nH]2)c(C(=O)OCC)c1C,.,-1.9
COC(=O)C1=C(C)NC(=S)NC1c1cc2c(cc1Br)OCO2 (stereo not given),.,-1.6
Nn1c(COc2ccc(F)cc2)n[nH]c1=S,.,0.5
CCOc1ccc(N=CC=C2OC(C)(C)C(C)(C)O2)cc1,.,-1.3
O=c1cc(-c2ccccc2)nc(N2CCc3ccccc32)[nH]1,-0.059,-0.1
COCCNC(=O)c1ccc(CN2CCOCC2)cc1,-0.49,1.6
CN=C(C)/C(C(=O)OC)=C(/O)c1ccc(Cl)cc1Cl,.,4.8
Fc1ccccc1N1CCN(c2nc(CN3CCOCC3)nc3sc4c(c23)CCCC4)CC1,.,-1.3

The results go on:
compound,LANA-nucl inh,BasE inh
O=C(O)c1c(CN2CCN(c3ccccc3)CC2)c(O)c2ccccc2c1O,.,9.1
CCOC(=O)/C=C(\C)Nc1cccc(N/C(C)=C/C(=O)OCC)c1C,.,-1.0
O=C(NC1CCCCC1)C1CC(=O)N(Cc2ccccc2)C1 (stereo not given),-0.93,0.5
Cc1ccccc1Nc1nc(CN2CCN(S(=O)(=O)c3ccccc3C#N)CC2)cs1,.,-0.2
COc1ccc(C(=O)NCC(=O)OC2CCOC2=O)cc1 (stereo not given),.,0.3
CCCCn1c2ccccc2c2n[nH]c(=S)nc21,-0.12&-1.8,0.6&0.5
O=C(CN1C(=O)/C(=C/c2ccccc2)SC1=S)NC1CCCC1,.,2.5
N#Cc1cn[nH]c1C(F)(F)F,1.9,.
CC(=C1C(=O)c2ccccc2C1=O)N1CCC(Cc2ccccc2)CC1,.,0.4
CC1CC(C)CN(C(=O)COC(=O)c2ccc(S(=O)(=O)N(C)C)cc2)C1 (stereo not given),.,1.7
O=C(O)CCc1ccc(-c2ccccc2)n1Cc1ccco1,-1.4,1.3
CC(=O)N1CCC(C(=O)Nc2ccccc2)(N(Cc2ccccc2)C(=O)c2cccnc2)CC1,.,0.2
CCCCNC(=O)c1cc(=O)[nH]c2ccc(S(=O)(=O)N3CCC(C)CC3)cc12,0.066,2.9
CN(C(=O)/C=C/c1cccs1)c1ccccc1,.,1.3
COC(=O)c1sccc1NC(=O)Nc1ccccc1F,1.4,-2.4
CC1=C(C(=O)NCc2ccccc2)C2(CCCCCC2)OC1=O,0.17,1.7
O=C(O)c1cc(S(=O)(=O)NN(Cc2ccccc2)c2ccccc2)ccc1O,.,1.9
Cc1nc2c3ccccc3nc(NNC(=O)CCC(=O)NC3CCCC3)n2n1,0.19,0.1
Cc1cccc(Nc2nnc(SCC(=O)Nc3cc(Cl)ccc3C#N)s2)c1,.,-1.4
Cn1c(C2CCCCC2)nc2ccccc21,2.5,-1.2
O=c1c2ccccc2nc2n1CCS2,0.57,-0.6
CN(C)C(CNC(=O)Cn1cnc2ccccc2c1=O)c1ccccc1 (stereo not given),.,4.0
CC(=O)Nc1ccc(C(=O)COc2ccc(-c3nnco3)cc2)cc1,.,-1.1
COc1ccc(S(=O)(=O)N2CCN(C(=O)c3cc4c(s3)CCC4)CC2)cc1,.,-0.7
CC1(C(=O)O)CCC(c2nc3c4ccccc4ncn3n2)C1(C)C (stereo not given),.,-0.7
CCCCNC(=O)c1cn(C2CCCC2)c(=O)c2c1c1ccccc1n2C,-0.36,5.1
O=C(O)c1cnn2c(-c3ccccc3)ccnc12,-0.17,0.2
N#Cc1c(-c2ccccc2)[nH]c(=S)[nH]c1=O,-0.22,2.8
c1ccc(-c2csc(NC3CCCCC3)n2)cc1,.,1.6
CC(C)c1ccc(NC(=O)Cc2nn(C)c(=O)c3ccccc23)cc1,-0.87,1.0
Cc1cccc(-c2nc(C#N)c(NCC(C)C)o2)c1,-1.1,5.6
O=C1Nc2ccc(S(=O)(=O)N3CCCC3)c3cccc1c23,-0.009,2.3
CCN(CC)S(=O)(=O)c1ccc2oc(SCC(=O)c3cc4ccccc4o3)nc2c1,.,0.4
COc1ccc(C#N)cc1,.,0.2
Cc1ccc(N2C(=O)C3ON(c4ccccc4)C(c4ccco4)C3C2=O)cc1 (stereo not given),-0.57,1.6
Cn1c(=NC(=O)C2CC(=O)N(c3ccc4c(c3)OCCO4)C2)sc2ccccc21 (stereo not given),.,0.3
Nc1ccccc1C(=O)NCc1ccc2c(c1)OCO2,0.25,4.9
Cc1ccc(NS(=O)(=O)CC23CCC(CC2=O)C3(C)C)cc1 (stereo not given),.,1.1
O=C1NN(C(=O)Nc2ccc(Br)cc2)[C@@H](c2ccccc2)[C@@H]1c1ccccc1,.,-1.6
CC1CCCC(C)N1C(=O)CN(C)S(=O)(=O)c1ccc2c(c1)OCCO2 (stereo not given),.,-0.3
CC(=O)Nc1cc(OC(=O)c2ccco2)cc(OC(=O)c2ccco2)c1,-0.21,-5.1
OC(CNCc1ccc(-c2ccccc2Cl)o1)c1ccccc1 (stereo not given),-0.72,-1.2
COCCn1cnnc1SCC(=O)C12CC3CC(CC(C3)C1)C2,.,0.9
COc1ccc(-c2csc(C3=C(O)CN(CCC(C)C)C3=N)n2)cc1OC,.,2.9
Cc1noc2ncnc(N(C)Cc3ccccc3)c12,.,1.5
CCN1C(=O)c2ccccc2S(=O)c2ccc(C(=O)N3CCc4ccccc4C3)cc21 (stereo not given),-0.59,-0.7
CCOC(=O)CN1NC2(CCCCCCC2)NC1=S,0.34,-1.9
CC(=O)Oc1cc2c(C(=O)NC3CC(C)(C)NC(C)(C)C3)c(C)oc2c2ccccc12,-0.16,-0.8
CCN1C2=C(C(=O)CCC2)C(c2cccc(O)c2)C2=C1CCCC2=O,.,0.6
CCCNC(=O)C1CCN(C(=O)c2cc3sccc3n2Cc2ccc(Cl)cc2)CC1,-0.45,1.7
COc1ccc(/C=N/NC(=O)c2sc(C)nc2C)cc1,.,-0.3
O=C(Nc1nc(-c2ccc(Cl)c(Cl)c2)cs1)C1CC1,.,1.3

Compound activity deposited in PubChem by ICCB-Longwood Screening Facility, Harvard Medical School.
